CBX7 AlphaScr – inhibitors of human CBX7 binding to H3K27me3 peptide. O95931. AlphaScreen His6-CBX7 / biotin-H3K27me3 peptide binding; active compounds read low. normalised signal (fraction of DMSO) (concentration not given with the values). actives 1.1% (n = 66,000). AID 1224903; in the data active means normalised signal below about 0.5;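 further: 100 nL library stock added to about 20 µL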
Target sequence (O95931 whole entry, looked up): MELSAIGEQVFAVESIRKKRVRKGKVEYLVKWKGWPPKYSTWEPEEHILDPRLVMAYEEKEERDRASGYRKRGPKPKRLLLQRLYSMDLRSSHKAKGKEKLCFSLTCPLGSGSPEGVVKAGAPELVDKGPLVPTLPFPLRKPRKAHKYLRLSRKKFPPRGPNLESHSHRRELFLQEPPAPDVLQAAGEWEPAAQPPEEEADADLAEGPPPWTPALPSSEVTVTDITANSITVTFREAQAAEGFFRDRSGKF
CBX7 AlphaScr z-score – also measured in CBX7 AlphaScr; calls as there; z-score; measured here: z-score of CBX7 signal; some inactives read as strong as hits; reference of the scale not given here;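 same signal on another scale; lower means less binding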
An asterisk follows results filed as active.

SMILES	CBX7 AlphaScr	CBX7 AlphaScr z-score
O=C(CSc1nncc2ccccc12)N1CCOCC1	1.1	0.387
CC1CCCC(NC(=O)CN2C(=O)CCSc3ccccc32)C1C (stereo not drawn)	1.01	0.326
CC(=O)N1CCc2cc(Br)cc(S(=O)(=O)NCCCN3CCCC3)c21	1.11	2.38
CCN1CCN(CCCNC(=O)CC(C(=O)N2CCc3ccccc32)n2ccnc2)CC1 (stereo not drawn)	1.03	0.724
Cc1cccc(NC(=O)CN(C)S(=O)(=O)c2ccc3c(c2)CCC(=O)N3)c1	0.954	-1.05
Cc1c(NC(=O)c2cc(Br)ccc2Cl)cccc1-c1nc2ncccc2o1	0.655	-8.59
CCCCNC(=O)CN1C(=O)CSc2ccc(S(=O)(=O)N3CCOCC3)cc21	1.06	0.702
CCCCCn1c(=O)[nH]c2cc(C(=O)NCc3ccccn3)ccc2c1=O	0.106*	-16.8*
CCOc1ccc(CCNC(=O)CS(=O)(=O)Cc2nc(-c3ccccc3Cl)oc2C)cc1	0.952	-1.37
Cc1ccc(F)cc1NC(=O)c1cn(-c2ccc(F)cc2F)c(=O)c2ccccc12	0.925	-1.03

Compound profiles, from the list above.
O=C(CSc1nncc2ccccc12)N1CCOCC1 is listed with CBX7 AlphaScr = 1.1; CBX7 AlphaScr z-score = 0.387
Cc1cccc(NC(=O)CN(C)S(=O)(=O)c2ccc3c(c2)CCC(=O)N3)c1 is listed with CBX7 AlphaScr = 0.954; CBX7 AlphaScr z-score = -1.05
CCOc1ccc(CCNC(=O)CS(=O)(=O)Cc2nc(-c3ccccc3Cl)oc2C)cc1 is listed with CBX7 AlphaScr = 0.952; CBX7 AlphaScr z-score = -1.37

More compounds:
SMILES	CBX7 AlphaScr	CBX7 AlphaScr z-score
O=S(=O)(Nc1ccc(Cl)cc1)c1ccc2nc(-c3ccccc3)[nH]c2c1	0.97	-0.528
COc1ccc(CNC(=O)c2cc3c(s2)-c2ccccc2OC3)cc1	1	0.125
COc1ccc(-c2nn(C)c3sc(C(=O)N4CCN(c5cc(C)ccc5C)CC4)cc23)cc1OC	0.812	-2.42
COc1ccccc1CNC(=O)Cn1c(C)cc2ccccc2c1=O	1.02	0.388
Cc1cccc(CC(=O)N2CC(=O)Nc3ccc(Cl)cc3C2c2ccccc2)c1 (stereo not drawn)	0.624	-3.59
O=C(NCc1ccc(Cl)cc1)c1cc(-c2ccco2)on1	0.951	-1.31
O=C(Nc1c(C(=O)Nc2ccc(Br)cc2)cnn1-c1ccccc1)c1ccccc1F	0.865	-0.311
COc1ccc(CNC(=O)c2oc3ccc(S(=O)(=O)N4CCOCC4)cc3c2C)cc1	1.07	1.66
Cc1ccc2c(c1)c(=O)c(S(=O)(=O)c1ccccc1)cn2CC(=O)Nc1ccc(F)cc1	1.05	0.77
Cc1ccc2c(c1)N(CC(=O)NC1CCCCC1)C(=O)CO2	1.21	3.55

For convenience, some entries already given.
SMILES	CBX7 AlphaScr	CBX7 AlphaScr z-score
COc1ccc(CNC(=O)c2cc3c(s2)-c2ccccc2OC3)cc1	1	0.125
COc1ccc(-c2nn(C)c3sc(C(=O)N4CCN(c5cc(C)ccc5C)CC4)cc23)cc1OC	0.812	-2.42

The list goes on.
SMILES	CBX7 AlphaScr	CBX7 AlphaScr z-score
C=CCN(CC=C)S(=O)(=O)c1ccc(C(=O)Nc2nnc(C3CC3)o2)cc1	0.00398*	-2.79*
Cc1noc(C(=O)N2CCCc3ccccc32)c1Cl	1.03	1.07
CCC(C)NC(=O)CN1C(=O)COc2ccc(S(=O)(=O)N3CC(C)CC(C)C3)cc21 (stereo not drawn)	0.986	-0.411
CC(=O)N1CCc2cc(Br)cc(S(=O)(=O)NCCCN3CCCCCC3)c21	1.04	0.935
Cc1ccc(-c2nc3ccccc3o2)cc1NC(=O)CC(C)C	0.997	-0.0949
Cc1ccc(-c2nnc(SCC(=O)Nc3ccccc3)c3ccccc23)cc1S(=O)(=O)N1CCOCC1	0.941	-0.619
O=c1c2ccccc2nc2n1-c1ccccc1CCC2	1.04	0.93
CCc1nc2c(cnn2-c2ccc(C)c(C)c2)c(=O)n1-c1ccc(OC)cc1	1.01	0.144
Cc1ccc(S(=O)(=O)Nc2ccccc2CNc2cnc3ccccc3c2)cc1	0.982	-0.798
O=C(O)CSc1nnc(-c2cccnc2)n1Cc1ccccc1	1.03	0.94

Four compounds out of the list, arranged by count of non-hydrogen atoms, high to low.
SMILES	CBX7 AlphaScr	CBX7 AlphaScr z-score
Cc1ccc(-c2nnc(SCC(=O)Nc3ccccc3)c3ccccc23)cc1S(=O)(=O)N1CCOCC1	0.941	-0.619
CCc1nc2c(cnn2-c2ccc(C)c(C)c2)c(=O)n1-c1ccc(OC)cc1	1.01	0.144
O=S(=O)(Nc1ccc(Cl)cc1)c1ccc2nc(-c3ccccc3)[nH]c2c1	0.97	-0.528
O=C(CSc1nncc2ccccc12)N1CCOCC1	1.1	0.387

Next records follow.
SMILES	CBX7 AlphaScr	CBX7 AlphaScr z-score
COc1ccccc1CNC(=O)CN1C(=O)COc2cc(S(=O)(=O)N3CCCC3)ccc21	0.968	-0.652
C=CCn1c(SCc2ccncc2)nc2cc(C(=O)NCC3CCCO3)ccc2c1=O (stereo not drawn)	0.844	-2.43
CCCN1Cc2cccc(C(=O)NC(C)c3cccs3)c2C1=O (stereo not drawn)	0.99	-0.0103
COc1cc2c(cc1OC)C1C(C(=O)NCC3COc4ccccc4O3)c3ccccc3C(=O)N1CC2 (stereo not drawn)	1.03	0.692
COc1ccccc1-c1c(C)nn2c(N3CCCCC3)cc(C)nc12	0.996	-0.0536
CCCNC(=O)c1ccc2c(c1)ncn2-c1cccc(F)c1	0.943	-0.684
CCn1cc(C(=O)Nc2ccc(F)cc2)c2cc(OC)c(OC)cc2c1=O	1.01	0.151
Cc1nc2ccc(S(=O)(=O)N(C)CC(=O)NC3CCCCCCC3)cc2s1	1.25	1.48
COc1ccc(OC)c(CCNC(=O)CN2C(=O)CC(C)(C)S(=O)(=O)c3ccccc32)c1	0.949	-1.51
Cc1cc(C)cc(Nc2cc(C(=O)NC(C)CCc3ccccc3)c3ccccc3n2)c1 (stereo not drawn)	1.35	5.45
COc1ccc(-c2nc3ccccc3n2Cc2ccccc2Cl)cc1	0.583	-3.99
O=C(NC1CCCCCC1)c1ccc(CNc2c(NC3CCCCC3)c(=O)c2=O)cc1	0.848	-2.5
CC(C)(C)c1ccccc1OCC(O)CN1CCN(c2ccccc2)CC1 (stereo not drawn)	1.12	0.905
CCCn1c(CCNC(=O)c2cccc(C)c2)nc2ccccc21	1.08	1.63
CN1CCC(O)(C#CCOc2ccc(Br)cc2)CC1	1.05	1.65
O=C(CN1C(=O)CCSc2ccccc21)NCc1ccccc1	0.986	-0.638
Cc1cc(C)cc(NC(=O)c2c(-c3ccccc3Cl)noc2C)c1	0.954	-0.201
COc1ccc(C2=CC(=O)Nc3ccccc3S2)cc1	0.769	-2.75
CC(C)(C)c1ccc(C(=O)N2CCCCC(Sc3nnc4ccccn34)C2=O)cc1 (stereo not drawn)	0.777	-2.96
COc1ccc(N2C(=O)CCC(C(=O)Nc3ccc(OC)cc3OC)C2c2ccc(F)cc2)cc1 (stereo not drawn)	1.08	1.25
COc1cc(OC)c(Nc2nc(C)nc3sc(C)c(C)c23)cc1Cl	1.37	3.54
COc1ccc(CCNC(=O)C2(C)CCC(=O)N2Cc2ccc3c(c2)OCO3)cc1OC (stereo not drawn)	1.09	1.51
COc1cc2c(cc1OC)C(C)N(C(=O)c1cc3c(s1)-c1c(C)cccc1OC3)CC2 (stereo not drawn)	1.12	3.33
Cc1ccc(NCc2nc3ccccc3n2C)c(C)c1	0.688	-5.64
Cc1ccc(-c2nc3c(cnn3-c3ccccc3)c(=O)n2-c2ccc(Cl)cc2)cc1	0.939	-2.42
Clc1cccc(-n2ncnc2-c2cccc(Br)c2)c1	1.11	1.32
CCOC(=O)C1CCN(C(=O)c2ccc(NC3=NC4CS(=O)(=O)CC4S3)cc2)CC1 (stereo not drawn)	1.03	0.521
O=C(Cc1ccc(-n2c(=O)[nH]c3ccsc3c2=O)cc1)Nc1ccccc1	0.986	-0.315
Cc1ccc(Nc2nc(-c3ccccc3O)nc3ccccc23)cc1	1.06	0.0673
CC(C)Oc1cccc(C(=O)Nc2ccc(Cl)c(-c3nc4ncccc4o3)c2)c1	0.845	-1.05
O=C(NCCc1ccccc1)C(=O)NCc1cccnc1	1.08	1.94
O=C(NC1CCCC1)C1c2ccccc2C(=O)N1c1ccc(Cl)cc1 (stereo not drawn)	0.888	-1.33
COCCn1cc(C(=O)NCC2CCCO2)c2c3ccccc3n(C)c2c1=O (stereo not drawn)	1.04	1.07
CCC(=O)N1CCc2cc(S(=O)(=O)NCCC(=O)Nc3cc(C)cc(C)c3)ccc21	1.04	1.54
Cc1cccc(CN2CCN(CC(=O)N3CCCC3)C2=O)c1	1.01	0.203
COc1ccc(C2C(C(=O)NCc3ccc(F)cc3)CCC(=O)N2c2ccc(OC)cc2)cc1 (stereo not drawn)	1.21	1.83
O=C(COc1cccc(C(F)(F)F)c1)Nc1ncc(Cc2ccc(Cl)cc2)s1	0.999	-0.00159
CC(=O)c1nn(-c2ccc(C)cc2)cc1C(=O)c1nc2ccccc2s1	0.948	-0.515
O=C(CN1N=C(c2ccc(Cl)cc2)CCC1=O)NC1CCCCCC1	1.01	0.162
Brc1ccc2ncnc(Nc3ccc4c(c3)OCCO4)c2c1	1	0.23
COCCn1c(SCC(=O)Nc2ccccc2C)nnc1-c1c[nH]c2ccccc12	1.08	0.529
COc1ccc(CCNC(=O)c2cnn3c(C)c(Cc4ccccc4Cl)c(C)nc23)cc1OC	0.965	-0.977
O=C(O)c1c2c(nc3ccc(S(=O)(=O)N4CCC(C(=O)N5CCCCC5)CC4)cc13)CCCC2	1.03	1.03
COC(=O)Nc1ccc2c(c1)N(C(=O)CCN1CCCCC1)c1ccccc1CC2	1.01	0.259
CC1(C)CC(=O)c2c(oc3c(Br)cc(NS(=O)(=O)c4ccccc4)cc23)C1	0.967	-0.357
c1ccc(-c2nc(-c3ccccc3)c(-c3ccccc3)nc2-c2ccccc2)cc1	1.08	2.06
COc1ccc(Nc2cc(C(=O)NCCc3ccc(Cl)cc3)c3ccccc3n2)cc1OC	0.826	-2.07
COc1ccc(C(=O)CSc2nnc(Cc3cc(=O)[nH]c(=O)[nH]3)n2-c2cccc(OC)c2)cc1	0.91	-1.38
CC1(C)CC(NC(=O)Nc2ccc(F)cc2)CCO1 (stereo not drawn)	0.989	-0.495
COc1ccc(OC)c(-c2cc(C(=O)Nc3cc(C)on3)no2)c1	0.959	-1.14

Some values from the entries so far.
For CBX7 AlphaScr, CC1(C)CC(=O)c2c(oc3c(Br)cc(NS(=O)(=O)c4ccccc4)cc23)C1 shows 0.967
For CBX7 AlphaScr z-score, CCN1CCN(CCCNC(=O)CC(C(=O)N2CCc3ccccc32)n2ccnc2)CC1 (stereo not drawn) shows 0.724

Later entries.
SMILES	CBX7 AlphaScr	CBX7 AlphaScr z-score
FC(F)(F)c1cccc(-c2nc3ccccc3[nH]2)c1	0.969	-0.524
Cc1cc(C)cc(NC(=O)CSc2nccn2-c2cccc(C)c2C)c1	0.815	-0.185
O=C(Cn1nc(Cc2ccncc2)c2ccccc2c1=O)NCCCN1CCc2ccccc2C1	1.37	3.78
COc1ccc(CCCc2nnc(SCC(=O)Nc3ccc(C)c(Cl)c3)o2)cc1	0.948	-0.492
CNc1oc(-c2ccc(Cl)cc2Cl)nc1S(=O)(=O)c1ccc(C)cc1	0.964	-0.83
COC(=O)c1ccc2c(c1)N(Cc1ccc(F)cc1)C(=O)c1ccccc1S2=O (stereo not drawn)	1.15	1.66
CC12CC3(C)CC(C)(C1)CC(N)(C2)C3	0.962	-0.41
Cc1ccc(Nc2nc(-c3ccc(Cl)cc3)cs2)cc1	0.815	-2.97
COc1ccccc1OCc1nc(C#N)c(N2CCCC2)o1	0.89	-5.65
COc1ccccc1NC(=O)Cn1cnc2sc(C(=O)NCc3ccc(F)cc3)c(C)c2c1=O	0.782	-2.34
COCCCNC(=O)CSc1nc(-c2ccc(C)cc2)[nH]c1-c1ccc(F)cc1	0.96	-0.689
CCCn1c(CNC(=O)c2ccc(F)cc2)nc2ccccc21	1.03	0.941
Clc1ccc(-c2csc3ncnc(N4CCN(Cc5ccc6c(c5)OCO6)CC4)c23)cc1	1.46	0.944
CCOc1ccc(-c2nc(C#N)c(NCCOC)o2)cc1	0.944	-0.616
CC(NC(=O)c1cccs1)C(c1cccs1)N1CCN(c2ccccc2F)CC1 (stereo not drawn)	0.862	-1.46
CCOC(=O)N1CCN(c2c(NC3CCCC(C)C3C)c(=O)c2=O)CC1 (stereo not drawn)	1	0.0851
O=C(Nc1nc2c(s1)CCc1ccccc1-2)c1cccs1	1.07	2.76
CCC(=O)N1CCc2cc(S(=O)(=O)NCCN(CC)c3ccccc3)ccc21	0.978	-0.431
Cn1ncc(Cl)c1C(=O)Nc1nc2ccc(Cl)cc2s1	1.04	1.66
CCCCNC(=O)c1ccc2c(c1)N(Cc1ccc(F)cc1)C(=O)c1ccccc1S2=O (stereo not drawn)	0.961	-0.56
Cc1ccc2oc(-c3ccc(Cl)c(NC(=O)CC(C)C)c3)nc2c1	1.01	0.176
O=C(O)c1nccnc1C(=O)NCc1ccccc1	1.07	0.871
Cc1ccc(-c2noc(CCC(=O)N(C)c3cccc(C)c3)n2)cc1	1.03	1.23
Cc1nc2cc(-c3ccccc3)nn2c(C)c1CCC(=O)Nc1ccc(-c2nc3ccccc3[nH]2)cc1	1.03	1.55
Cc1nc(S(=O)(=O)c2ccccc2)c(NCc2ccccc2)o1	0.982	-0.646
COc1ccc(NC(=O)Cn2cnc3sc(C)cc3c2=O)cc1OC	1	0.102
Cc1ccc(Cl)cc1N(C)C(=O)c1ccc2c(=O)n3c(nc2c1)CCCCC3	1.04	0.0854
COc1ccc(-c2nc(-c3ccccc3)c(-c3cccs3)[nH]2)cc1	0.816	-1.15
CCN1CCCC1CNC(=O)c1cn(C2CCCC2)c(=O)c2c1c1ccccc1n2C (stereo not drawn)	1.03	0.84
COc1cccc(NC(=O)Cn2nc(Cc3ccncc3)c3ccccc3c2=O)c1	0.864	-3.76

These rows are one share of the data (hit frequency here may not be typical).
